Source: PubChem
MARV entry inh: inhibitors of Marburg virus binding or cell entry; Marburg virus pseudotyped entry inhibition, cell reporter; control for the full effect not named in the record; about a third of the inactives were read at about 46 µM; Potency, µM (titrated, usually from 37.8 µM), for the others: top-dose activity change, negative = inhibition, actives largely listed as inhibitors; 300,000 compounds, 1.8% hits; AID 540276; active = well fitted inhibition curve with a large enough effect; inconclusive = small, poorly fitted or top-dose-only effect, or effect the other way; inactive = flat fitted curve, though single readings scatter; tested in HEK293 cells; about a fifth of its hits are not listed in these tables; note: % is set by controls: 0 for no effect and ±100 for the full control effect; luciferase read-out
StopGo reporter: lowers the luciferase signal of an FMDV 2A StopGo reporter; 410,000 compounds, 1.2% hits; human cells with a luciferase reporter of 2A StopGo recoding; control for the full effect not named in the record; AID 1159524; Potency, µM (series often up to 57.9 µM), for the others: top-dose signal change, negative = less light; active = well fitted falling curve with a large enough effect; inconclusive = small, poorly fitted or top-dose-only effect; inactive = no such curve, though single readings can be large or run the other way; tested in HEK293T cells; note: % is set by controls: 0 for no effect and ±100 for the full control effect; nearly all actives have a fitted effect of over 45% in size; luciferase light after 4 h
SARS PLpro yeast: SARS-CoV PLP inhibition in yeast; S. cerevisiae expressing SARS-CoV PLpro, growth rescue; control for the full effect not named in the record; Potency, µM (doses to about 32.9 µM), inactives show at the highest dose activity, positive = growth rescue; 330,000 compounds, 0.19% hits; active means well fitted rising curve with a large enough effect; inconclusive means small, poorly fitted or top-dose-only effect; inactive means no such curve, though single readings can be large or run the other way; note: 0% is about no effect; nearly all actives have a fitted effect of over 55% in size; growth read by luminescence after 48 h
NS1 function inh: blocks influenza NS1 protein function; S. cerevisiae slowed by influenza A NS1, growth recovery by OD600; Potency, µM (doses to about 46.1 µM), without a hit: at the highest dose activity, positive = more growth; 270,000 compounds, 0.4% hits; active means well fitted rising curve with a large enough effect; inconclusive means small, poorly fitted or top-dose-only effect; inactive means no such curve, though single readings can be large or run the other way; note: nearly all actives have a fitted effect of over 50% in size
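Compounds were scored for reversing the slow growth caused by influenza A NS1 in S. cerevisiae, measured by optical density at 600 nm. Assay medium contained 2% galactose at pH 6.0; NS1-free yeast of the same strain were the positive control.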
Cruzain noTriton: inhibitors of Trypanosoma cruzi cruzain without detergent. Potency, µM, for the others: max response, negative = inhibition, actives largely listed as inhibitors. 200,000 compounds, 2.3% hits. purified cruzain, Z-FR-AMC fluorescence, no detergent. P25779;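 note: plate controls were enzyme without inhibitor for no effect and buffer without enzyme for full effect; nearly all actives have a fitted effect of over 40% in size; top concentration of the series not given in the record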
Target sequence (P25779 123-467 limits assumed): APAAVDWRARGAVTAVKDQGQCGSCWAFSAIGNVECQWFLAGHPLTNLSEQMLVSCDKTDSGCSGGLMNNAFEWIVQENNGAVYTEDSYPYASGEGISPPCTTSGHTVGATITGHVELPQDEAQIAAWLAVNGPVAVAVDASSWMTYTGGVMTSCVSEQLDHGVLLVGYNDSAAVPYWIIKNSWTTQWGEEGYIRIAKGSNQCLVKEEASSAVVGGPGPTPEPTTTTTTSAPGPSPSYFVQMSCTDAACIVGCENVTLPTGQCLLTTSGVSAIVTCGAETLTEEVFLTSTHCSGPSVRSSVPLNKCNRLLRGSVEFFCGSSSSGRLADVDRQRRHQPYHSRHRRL
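Detergent-free condition (0.00005% Triton X-100) in acetate buffer pH 5.5 with DTT. 1.5 nM enzyme and compound were pre-mixed 15 min, then 2 uM Z-FR-AMC substrate added; reaction progress from fluorescence change between first and third reads (60 s).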
RE007 growth inh: less growth of the S. pombe RE007 Vpr strain | Potency, µM (titrated, usually from 92.2 µM), for the others: at the highest dose activity change, negative = less growth | S. pombe RE007 Vpr strain, BacTiter-Glo ATP luminescence, 24 h; control for the full effect not named in the record | 360,000 compounds, 0.21% hits | AID 651644; active = well fitted falling curve with a large enough effect; inconclusive = small, poorly fitted or top-dose-only effect; inactive = no such curve, though single readings can be large or run the other way;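 note: % is set by controls: 0 for no effect and ±100 for the full control effect; nearly all actives have a fitted effect of over 50% in size; the assay follows cell death caused by Vpr and the record does not say whether a fall means rescue or toxicity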
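Fission yeast strain RE007, carrying one chromosomally integrated HIV-1 vpr copy, was seeded at OD 0.01 in PMG+AL medium with 23 nL pinned compound. After 24 h at 30 °C and 99% humidity, viability was read by BacTiter-Glo luminescence.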
LASV entry inh: Lassa virus entry inhibition; Lassa virus pseudotype entry inhibition, cell reporter; control for the full effect not named in the record; Potency, µM (doses to about 37.9 µM), inactives show top-dose activity change, negative = inhibition, hits mostly inhibitors; 300,000 compounds, 1.2% hits; AID 540256; active means well fitted inhibition curve with a large enough effect; inconclusive means small, poorly fitted or top-dose-only effect, or effect the other way; inactive means flat fitted curve, though single readings scatter; tested in HEK293 cells; note: % is set by controls: 0 for no effect and ±100 for the full control effect; nearly all actives have a fitted effect of over 50% in size; luciferase read-out
Cruzain Triton: inhibitors of Trypanosoma cruzi cruzain with detergent. purified cruzain, Z-FR-AMC fluorescence, 0.01% Triton. Potency, µM, inactives show max response, negative = inhibition, usual class: inhibitors. 200,000 compounds, 0.43% hits. AID 1478;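 note: plate controls were neutral wells for no effect and buffer without enzyme for full effect; nearly all actives have a fitted effect of over 40% in size; top concentration of the series not given in the record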
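Read-out: AMC fluorescence (360 nm excitation, 450 nm emission), four reads over 2 min, first-to-third difference used. Conditions: cruzain 1.5 nM, Z-FR-AMC 2 uM, pH 5.5 acetate, 5 mM DTT, 0.01% Triton X-100.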
* hit, by the source's call; ? = inconclusive; · = not tested or not shown; & = joins results of further samples; [ ] = remark or other dose. Unless noted, calls come from the whole dose curve; as a rule, active = well fitted curve in the direction sought with a large enough effect; inconclusive = small, poorly fitted or top-dose-only effect, or another doubt; inactive = no such curve, though single readings can be large; an effect the other way counts as inactive or inconclusive. Potency is the fitted concentration of half-maximal effect.

SMILES	MARV entry inh	StopGo reporter	SARS PLpro yeast	NS1 function inh	Cruzain noTriton	RE007 growth inh	LASV entry inh	Cruzain Triton
COc1ccc(C(=O)Oc2cc(C)[nH]c(=O)c2[N+](=O)[O-])cc1	16%	-9%	-8%	-10%	-2%	1%	?	-4.0%
N#CC(C#N)=C1C=CC=CN1/C(=C\c1ccco1)C(=O)c1ccccc1	25µM*	?	-16%	0%	-12%	2%	?	-10%
CC1CCCC(C)N1/N=C/C=C/c1ccccc1[N+](=O)[O-] (centres undefined)	2%[46.1 µM]	21%	-2%	·	·	-20%	1%	·
Fc1cc(F)c2nc(N3CCCCC3)sc2c1	16%[46.1 µM]	36%[activator]	10%	0%	-11%	?	27%	-1.2%
C/C(=N\O)c1noc(C)c1C(=O)Nc1nccs1	?	-17%	9%	3%	·	8%	14%[46.1 µM]	·
COCCN(C(=O)CNC(=O)c1ccco1)C(C(=O)NC1CCCC1)c1ccccc1F (centres undefined)	-2%[46.1 µM]	17%	0%	7%	·	-1%	-15%	·
C#CCOCCOCCOCCNc1nc(N2CCN(C(=O)C(Cc3cc4ccccc4[nH]3)n3cc(C(N)C(C)CC)nn3)CC2)nc(N2CCN(C(=O)C(Cc3cc4ccccc4[nH]3)n3cc(C(N)C(C)CC)nn3)CC2)n1 (centres undefined)	·	-12%	-2%	-1%	·	26%	·	·
Clc1ccc(CNc2cc(-c3ccccc3)nc3nncn23)cc1	-15%[46.1 µM]	?	·	·	7%	·	-1%[46.1 µM]	5.7%
O=C(C1CCCN(Cc2cccnc2)C1)N1CCCCC1 (centres undefined)	-12%	-17%	7%	-3%	3%	35%	13%	1.5%
Cc1nnc(NC(=O)CCC(=O)NC2CCCCCCC2)s1	3%[46.1 µM]	-4%	0%	12%	·	-5%	-10%[46.1 µM]	·
CCCc1nc(SCC(=O)Nc2nnc(CC)s2)c2c(C)c(C)sc2n1	-3%	·	7%	13%	3%	7%	7%	-0.3%
COc1cccc(NC(=O)c2sc3nc(C)c(C(=O)Nc4ccc(C)cc4C)c(-c4ccco4)c3c2N)c1	-2%[46.1 µM]	-13%	·	·	-11%	·	?	-2.8%
COC(=O)c1sc(NC(=O)C(C)c2ccccc2)nc1C (centres undefined)	-1%	0%	-41%	-16%	-5%	4%	-21%	-4.2%
COc1cc(OC)c(C#N)c(S(=O)Cc2ccccc2)c1 (centres undefined)	11%[46.1 µM]	-18%	6%	-8%	-1%	-6%	-4%	0.5%
c1nc2sc3c(c2c2nnnn12)CCC3	17%	-2%	2%	-30%	-9%	5%	13%	-6.5%
CCCCCOc1ccccc1C(=O)NCCCCCC(=O)O	12%	-9%	1%	10%	·	-14%	-2%	·
COc1ccc2cc(C(c3nnnn3C3CCCC3)N3CCOCC3)c3nnnn3c2c1 (centres undefined)	?	1%	0%	-3%	·	20%	7%	·
Cc1ccc(NS(=O)(=O)c2ccc(C)c(NC(=S)NCCN3CCOCC3)c2)c(C)c1	?	-3%	-1%	·	·	2%	-39%	·
CCOc1cc(CNCCO)ccc1OCC(=O)NC(C)(C)C	5%[46.1 µM]	-15%	0%	4%	·	1%	17%	·
CCCCn1c(N)c(N(CC(C)C)C(=O)CSCc2cccc(C)c2)c(=O)[nH]c1=O	?	-8%	-2%	·	·	-7%	12%[46.1 µM]	·
Cc1ccc(N2C(=O)[C@@H]3[C@H](C2=O)[C@H]2C=CC=NN2[C@@H]3C(=O)Nc2ccc(Cl)cc2)cc1	27%	0%	-4%	12%	-1%	16%	0%	-8.1%
CCC(C)Nc1nc(N)c([N+](=O)[O-])c(NCc2ccccc2)n1 (centres undefined)	·	?	-1%	-9%	·	33%	·	·
Cc1ccc(-c2nc(C#N)c(N3CCC(C)CC3)o2)cc1	·	21%	-2%	-33%	·	2%	·	·
CCCCc1nc2ccc(S(=O)(=O)O)cc2[nH]1	2%[46.1 µM]	-18%	0%	1%	·	-1%	16%[46.1 µM]	·
CC(C)c1ccc(-c2c(C#N)c(N)nc(SCC(=O)N3CCCCCC3)c2C#N)cc1	?	-9%	6%	5%	-9%	-12%	-14%	-3.1%

(next part)
SMILES	MARV entry inh	StopGo reporter	SARS PLpro yeast	NS1 function inh	Cruzain noTriton	RE007 growth inh	LASV entry inh	Cruzain Triton
COC(=O)C1OCOC2C(C(=O)OC)OCOC12 (centres undefined)	-2%[46.1 µM]	-7%	·	·	·	2%	-1%[46.1 µM]	·
CC(=O)N1c2ccc(S(=O)(=O)NCC3CCC(C(=O)Nc4ccc(F)cc4)CC3)cc2CC1C (centres undefined)	·	35µM*	·	·	8%	·	?	-3.3%
Cn1c(/C(C#N)=C/Nc2ccccn2)nc2ccccc21	-4%&-4%	15%	5%	-60%	1%	-11%	0%	-0.4%
COc1ccc(CNC(=O)c2cc(-c3ccccc3OC)on2)cc1	0%	14%	-5%	-18%	3%	-15%	2%	-5.8%
O=C(NCCN1CCOCC1)c1ccc(CS(=O)(=O)c2c(Cl)cccc2Cl)o1	·	-25%	-1%	?	0%	-5%	·	4.4%
O=C(c1ccc2c3c(cccc13)CC2)C1CCCN(CC2CC2)C1 (centres undefined)	?	-14%	0%	5%	·	-14%	-24%	·
O=C1CC2(CCN(C(=O)c3cccc([N+](=O)[O-])c3)CC2)Oc2ccccc21	-1%	-16%	10%	·	·	-8%	2%	·
COc1cccc(N2CCN(C(=S)Nc3ccccc3)CC2)c1	-12%	-19%	1%	22%	·	-5%	-25%	·
CCNC(=O)c1c(O)c2ccccc2[nH]c1=O	1%	·	-20%	-115%	1%	-21%	1%	-2.4%
Cn1c(COc2ccccc2)nnc1SCCN1CCOCC1	-8%	1%	3%	-1%	1%	-8%	0%	6.3%
CCOc1ccc(NC(=O)Cn2cc(C(=O)c3ccc(OC)cc3)c(=O)c3cc4c(cc32)OCO4)cc1	7%[46.1 µM]	0%	·	·	-11%	·	-5%[46.1 µM]	-2.3%
O=C(CSc1nc(C2CCCCC2)nc2ccccc12)N1CCCC1	?	-16%	1%	-11%	·	0%	?	·
N#Cc1cccc(NC(=O)COC(=O)c2ccccc2C(=O)c2ccc(Cl)c([N+](=O)[O-])c2)c1	23µM*	28µM*	11%	?	?	-4%	?	-5.1%
COc1cccc(C(=O)NC(C)c2ccc(-c3ccccc3)cc2)c1OC (centres undefined)	?	-16%	-10%	-26%	·	-17%	?	·
CCOc1ccc(C(CC(=O)O)NC(=O)COc2ccccc2)cc1 (centres undefined)	-1%	11%	11%	-1%	2%	10%	12%	5.8%
Cc1c2cnn(CC(=O)NCCc3ccccc3)c(=O)c2c(C)n1Cc1ccccc1	-4%[46.1 µM]	-19%	·	·	-14%	·	?	-0.5%
Cc1ccc(-n2nc(C)c(/C=N/NC(=O)c3cccs3)c2Cl)cc1	?	39%[activator]	25%	12%	10%	54%	?	-0.2%
CCn1c(SCC(=O)OC)nc2sc3c(c2c1=O)CCC3	7%	·	-15%	-96%	-8%	-10%	7%	-11%
Cc1cc(=O)[nH]c(SCC(=O)NCc2ccco2)n1	-3%	-17%	8%	10%	19%	0%	?	-0.5%
COc1ccc(NC(=O)c2cc3c(-c4ccccc4F)nn(C)c3s2)c(OC)c1	9%[46.1 µM]	0%	·	·	25%	·	-27%[46.1 µM]	-4.5%
Cc1ccc(Cn2c(=N)n(CC(O)c3ccco3)c3ccccc32)cc1 (centres undefined)	11µM*	?	-2%	-15%	7%	-26%	-21%	0.5%
Cc1cc(S(=O)(=O)N2CCN(c3ccccc3O)CC2)c(C)s1	·	-18%	-10%	-67%	-4%	-2%	·	-7.7%
CNC(=O)c1c(Br)cnn1-c1ccc(C)cc1	22%[46.1 µM]	83%[activator]	0%	-3%	·	-5%	-24%	·
COC(=O)c1sc2cc(C(F)(F)F)cnc2c1-c1ccccc1	12%	·	-3%	-4%	0%	3%	-5%	3.3%
CCc1nc(-c2ccc(C)c(S(=O)(=O)N3CCN(c4ccc(C(C)=O)cc4)CC3)c2)no1	·	-29%	·	·	1%	·	?	-0.6%

Later entries
SMILES	MARV entry inh	StopGo reporter	SARS PLpro yeast	NS1 function inh	Cruzain noTriton	RE007 growth inh	LASV entry inh	Cruzain Triton
COc1ccc(CN2CN(S(=O)(=O)c3cccs3)c3nc4ccccc4nc32)cc1	0%	52%[activator]	0%	-3%	·	8%	30%	·
CCOC(=O)c1sc(NC(=O)C2C3C=CC(C3)C2C(=O)O)nc1C (centres undefined)	5%	-2%	-20%	10%	-5%	-6%	-2%	-2.9%
Cc1csc(C(=O)NN)c1N(C)C	·	21%	-1%	1%	·	10%	·	·
COc1ccc(N2CCN(S(=O)(=O)CCNC(=O)Cc3ccc(-c4ccccc4)cc3)CC2)cc1	·	7%	·	·	1%	·	-11%[46.1 µM]	-2.6%
CC(C(=O)Nc1ccc(S(=O)(=O)N2CCCC2)cc1)N1CCCC(C(N)=O)C1 (centres undefined)	-11%	-12%	0%	·	·	1%	0%	·
CCc1ccc(-n2nc(CO)c(C(=O)NCc3ccccn3)n2)cc1	2%[46.1 µM]	12%	·	·	-8%	·	-1%[46.1 µM]	-2.4%
CC(c1nccs1)N(C)c1nc2nonc2nc1NC1CC1 (centres undefined)	·	-1%	-1%	1%	·	-18%	·	·
O=C(NCCNC(=O)c1ccccc1F)c1ccco1	-1%[46.1 µM]	7%	0%	2%	·	1%	8%	·
CC(Sc1nnc(-c2ccco2)o1)C(=O)NCCC1=CCCCC1 (centres undefined)	0%	5%	0%	·	·	4%	?	·
Cc1cc(C)cc(OCC(=O)N(Cc2ccc(Cl)cc2)CC2CCCO2)c1 (centres undefined)	?	-10%	·	·	?	·	16%[46.1 µM]	-9.6%
c1coc(CNc2ncnc3ccccc23)c1	?	?	?	-11%	3%	11%	-21%	-1.7%
CC(C)n1c(CNC(=O)c2ccccc2F)nnc1SCC(=O)NC1CCCCC1	?	-2%	·	·	·	-5%	-1%	·
COc1cccc(/C=N/NC(=O)C(=O)N/N=C/c2cccc(OC)c2O)c1O	?	4%	?	5%	·	5%	?	·
